SARS PLP yeast: qHTS of Yeast-based Assay for SARS-CoV PLP | Potency, µM (doses to about 32.9 µM), for inactives: at the highest dose activity, positive = growth rescue | AID 485353, 2010 | S. cerevisiae expressing SARS-CoV PLpro, growth rescue; control for the full effect not named in the record | actives 0.19% (n = 330,000); active means well fitted rising curve with a large enough effect; inconclusive means small, poorly fitted or top-dose-only effect; inactive means no such curve, though single readings can be large or run the other way; also: 0% is about no effect; nearly all actives have a fitted effect of over 55% in size; growth read by luminescence after 48 h
NS1 function inh: qHTS Assay for Inhibitors of Influenza NS1 Protein Function | actives 0.4% (n = 270,000) | Potency, µM (highest dose often 46.1 µM), without a hit: top-dose activity, positive = more growth | S. cerevisiae slowed by influenza A NS1, growth recovery by OD600; active means well fitted rising curve with a large enough effect; inconclusive means small, poorly fitted or top-dose-only effect; inactive means no such curve, though single readings can be large or run the other way; also: nearly all actives have a fitted effect of over 50% in size
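OD600 was taken as the measure of yeast growth restored by compound in an NS1-expressing S. cerevisiae strain. Cells had been washed out of glucose medium and diluted 1:100 into galactose -URA medium, pH 6.0.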
Cruzain inh Det: qHTS Assay for Promiscuous and Specific Inhibitors of Cruzain (with detergent). Potency, µM, without a hit: max response, negative = inhibition, hits mostly inhibitors. AID 1478, 2009. purified cruzain, Z-FR-AMC fluorescence, 0.01% Triton. actives 0.43% (n = 200,000);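 also: plate controls were neutral wells for no effect and buffer without enzyme for full effect; nearly all actives have a fitted effect of over 40% in size; top concentration of the series not given in the record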
Target sequence (P25779 123-467 limits assumed): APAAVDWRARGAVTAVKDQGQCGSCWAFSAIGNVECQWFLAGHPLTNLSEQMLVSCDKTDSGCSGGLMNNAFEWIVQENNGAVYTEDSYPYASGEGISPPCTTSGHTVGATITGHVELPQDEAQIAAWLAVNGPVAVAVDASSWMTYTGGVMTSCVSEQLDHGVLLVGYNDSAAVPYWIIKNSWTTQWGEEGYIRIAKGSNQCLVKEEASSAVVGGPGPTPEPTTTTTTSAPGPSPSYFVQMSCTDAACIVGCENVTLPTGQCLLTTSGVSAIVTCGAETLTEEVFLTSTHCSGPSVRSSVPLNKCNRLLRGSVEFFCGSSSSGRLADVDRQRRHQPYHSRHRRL
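Steps: dispense cruzain (1.5 nM final) in acetate buffer pH 5.5 with DTT and 0.01% Triton X-100; pin-transfer compounds; incubate 15 min RT; add Z-FR-AMC (2 uM final); read fluorescence every 30 s, using the 60 s intensity change.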
MARV entry inh: qHTS for inhibitors of binding or entry into cells for Marburg Virus; Marburg virus pseudotyped entry inhibition, cell reporter; control for the full effect not named in the record; about a third of the inactives were read at about 46 µM; Potency, µM (doses to about 37.8 µM), without a hit: at the top dose activity change, negative = inhibition, hits mostly inhibitors; actives 1.8% (n = 300,000); active = well fitted inhibition curve with a large enough effect; inconclusive = small, poorly fitted or top-dose-only effect, or effect the other way; inactive = flat fitted curve, though single readings scatter; tested in HEK293 cells; about a fifth of its hits are not listed in these tables; also: % is scaled to controls: 0 for no effect and ±100 for the full control effect; luciferase read-out
StopGo reporter: High Throughput Screening for Foot and Mouth Disease Virus Antivirals | AID 1159524, 2015 | human cells with a luciferase reporter of 2A StopGo recoding; control for the full effect not named in the record | actives 1.2% (n = 410,000) | Potency, µM (highest dose often 57.9 µM), without a hit: at the top dose signal change, negative = less light; active = well fitted falling curve with a large enough effect; inconclusive = small, poorly fitted or top-dose-only effect; inactive = no such curve, though single readings can be large or run the other way; tested in HEK293T cells; also: % is scaled to controls: 0 for no effect and ±100 for the full control effect; nearly all actives have a fitted effect of over 45% in size; luciferase light after 4 h
Lassa entry inh: qHTS for Inhibitors of binding or entry into cells for Lassa Virus. AID 540256, 2011. Lassa virus pseudotype entry inhibition, cell reporter; control for the full effect not named in the record. Potency, µM (series often up to 37.9 µM), for the others: at the highest dose activity change, negative = inhibition, hits mostly inhibitors. actives 1.2% (n = 300,000); active means well fitted inhibition curve with a large enough effect; inconclusive means small, poorly fitted or top-dose-only effect, or effect the other way; inactive means flat fitted curve, though single readings scatter; tested in HEK293 cells; also: % is scaled to controls: 0 for no effect and ±100 for the full control effect; nearly all actives have a fitted effect of over 50% in size; luciferase read-out
RE007 growth inh: qHTS Assay for Inhibitors of the HIV-1 protein Vpr. S. pombe RE007 Vpr strain, BacTiter-Glo ATP luminescence, 24 h; control for the full effect not named in the record. Potency, µM (titrated, usually from 92.2 µM), inactives show at the highest dose activity change, negative = less growth. actives 0.21% (n = 360,000). AID 651644, 2012; active = well fitted falling curve with a large enough effect; inconclusive = small, poorly fitted or top-dose-only effect; inactive = no such curve, though single readings can be large or run the other way;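 also: % is scaled to controls: 0 for no effect and ±100 for the full control effect; nearly all actives have a fitted effect of over 50% in size; the assay follows cell death caused by Vpr and the record does not say whether a fall means rescue or toxicity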
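Fission yeast strain RE007, carrying one chromosomally integrated HIV-1 vpr copy, was seeded at OD 0.01 in PMG+AL medium with 23 nL pinned compound. After 24 h at 30 °C and 99% humidity, viability was read by BacTiter-Glo luminescence.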
Cruzain inh noDet: qHTS Assay for Promiscuous and Specific Inhibitors of Cruzain (without detergent). Potency, µM, for inactives: max response, negative = inhibition, most hits filed as inhibitors. Cruzipain (Trypanosoma cruzi), P25779. AID 1476, 2009. actives 2.3% (n = 200,000). purified cruzain, Z-FR-AMC fluorescence, no detergent;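 also: plate controls were enzyme without inhibitor for no effect and buffer without enzyme for full effect; nearly all actives have a fitted effect of over 40% in size; top concentration of the series not given in the record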
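Detergent-free condition (0.00005% Triton X-100) in acetate buffer pH 5.5 with DTT. 1.5 nM enzyme and compound were pre-mixed 15 min, then 2 uM Z-FR-AMC substrate added; reaction progress from fluorescence change between first and third reads (60 s).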
Starred values were filed as active, the others as inactive; ? = inconclusive; . = not tested or not shown; & = joins results of further samples; [ ] = another dose, or the depositor's remark. Unless noted, calls follow the shape of the dose curve; as a rule, active = well fitted curve in the direction sought with a large enough effect; inconclusive = small, poorly fitted or top-dose-only effect, or another doubt; inactive = no such curve, though single readings can be large; an effect the other way counts as inactive or inconclusive. Potency is read from the fitted curve at half-maximal effect.

smiles,SARS PLP yeast,NS1 function inh,Cruzain inh Det,MARV entry inh,StopGo reporter,Lassa entry inh,RE007 growth inh,Cruzain inh noDet
Cc1c(CNC(C)CCc2ccccc2)c(C(=O)O)c(C)n1Cc1ccc(F)cc1Cl (stereo not given),.,.,-2.2%,?,24%,-10%[46.1 µM],.,15%
O=C(NC1=NCCS1)NC12CC3CC(CC(C3)C1)C2,-27%,-126%,-2.0%,8%,-4%,-5%,?,-9%
O=[N+]([O-])c1ccc(N2CCCCCC2)c2ncccc12,-2%,-9%,.,3%,0%,7%,-2%,.
O=C(Nc1nnc(C2=COCCO2)o1)c1ccc(S(=O)(=O)N2CCCCC2)cc1,6%,.,.,-15%[46.1 µM],-16%,7%[46.1 µM],5%,.
O=C(Nc1ccc2nc(SCC(=O)N3CCCC3)sc2c1)c1ccccc1,.,.,-2.3%,11%[46.1 µM],-17%,1%[46.1 µM],.,-5%
Cc1cccc(C(=O)NC(C)C(c2cccs2)N2CCOCC2)c1 (stereo not given),0%,-2%,.,?,-17%,16%[46.1 µM],-4%,.
O=C(N/N=C/c1cccnc1)c1cccc(N2CCCC2=O)c1,0%,0%,.,-7%[46.1 µM],17%,15%[46.1 µM],-18%,.
COC(=O)CN1C(C)=Nc2ccc(C)cc2C1c1ccccc1 (stereo not given),1%,3%,.,-19%&-19%[46.1 µM],0%,-8%,-24%,.
CCOC(=O)[C@@H]1[C@H]2COc3ccccc3[C@H]2N2C(=O)N(c3ccc(C(F)(F)F)cc3)C(=O)[C@]12C,-23%,-109%,.,.,-26%,.,-11%,.
Cc1cc(C)cc(CC2CC(=O)N(c3cc(C)ccc3C)C2=O)c1 (stereo not given),-9%,-2%,.,3%,-16%,-18%,3%,.
CCOc1ccc(C(=O)NCC(C)CN(C)C)cc1OCC (stereo not given),0%,6%,2.2%,21%[46.1 µM],23%,3%,26%,4%
O=C(O)c1cc(N2N=C(C(F)(F)F)/C(=C/C=C/c3ccco3)C2=O)ccc1Cl,-1%,?,.,?,28µM*,-11%,-8%,.
O=C(NCc1ccco1)c1ccc(F)c(S(=O)(=O)N2CCCCC2)c1,0%,9%,.,13%[46.1 µM],22%,?,6%,.
Cc1c(NC(=O)c2cc3ccccc3o2)cccc1-c1nc2ccccc2o1,.,.,-2.8%,.,-25%,-10%[46.1 µM],.,-20%
Cc1cc(=O)[nH]c(SCC(=O)Nc2ccccc2[N+](=O)[O-])n1,0%,-1%,.,-10%,-10%,2%,0%,.
Cc1ccc(C)c(N2CCN(c3nc4ccccc4c4nc(CCn5nc(C)cc5C)nn34)CC2)c1,.,.,0.8%,9%[46.1 µM],-20%,.,.,7%

Three neighbouring records from above, quoted:
smiles,SARS PLP yeast,NS1 function inh,Cruzain inh Det,MARV entry inh,StopGo reporter,Lassa entry inh,RE007 growth inh,Cruzain inh noDet
Cc1c(CNC(C)CCc2ccccc2)c(C(=O)O)c(C)n1Cc1ccc(F)cc1Cl (stereo not given),.,.,-2.2%,?,24%,-10%[46.1 µM],.,15%
O=C(NC1=NCCS1)NC12CC3CC(CC(C3)C1)C2,-27%,-126%,-2.0%,8%,-4%,-5%,?,-9%
O=[N+]([O-])c1ccc(N2CCCCCC2)c2ncccc12,-2%,-9%,.,3%,0%,7%,-2%,.

Next part
smiles,SARS PLP yeast,NS1 function inh,Cruzain inh Det,MARV entry inh,StopGo reporter,Lassa entry inh,RE007 growth inh,Cruzain inh noDet
O=S(=O)(c1ccc(Sc2nnc3ccccn23)nc1)N1CCOCC1,-1%,-7%,4.7%,-14%,14%,2%,8%,4%
CCc1ccc(NC(=O)c2sc3nc(C)c(C(=O)Nc4ccc(C)cc4C)c(-c4ccco4)c3c2N)cc1,.,.,-2.5%,21%[46.1 µM],-17%,?,.,?
CCOC(=O)c1sc2nc(-c3ccccc3)ccc2c1N,-21%,-7%,-4.5%,?,-14%,?,0%,?
CCCC1=Nc2cc(C(=O)NCCc3ccc(OCC)cc3)ccc2Sc2ccccc21,.,.,-2.1%,-5%[46.1 µM],?,?,.,?
O=C(CSc1nc2[nH]ncc2c(=O)n1-c1ccccc1)N1CCCc2ccccc21,2%,-14%,1.0%,4%,?,13%,8%,16%
CCC1(c2ccccc2)NC(=O)N(CC(=O)Nc2cc(S(=O)(=O)N3CCCCC3)ccc2N(C)C)C1=O (stereo not given),0%,.,.,?,1%,-26%,1%,.
C(#Cc1ccccc1)C[N+]1(CC#Cc2cccc3ccccc23)CCCC1,-9%,-8%,-6.4%,0%,?,?,10%,0%
O=C(Nc1cccc(Cl)c1)Nc1ccccc1-n1ccnc1,4%,6%,.,0%[46.1 µM],6%,1%,-7%,.
CCOc1ccc(CC(=O)Nc2ccc3nc(N4CCCCC4)cc(C)c3c2)cc1OCC,.,.,-9.4%,.,-7%,.,.,15%
CCCC1=C(C(=O)OCC)C(c2ccncc2)n2ncnc2N1 (stereo not given),-1%,2%,6.2%,2%,4%,4%,-9%,-5%
O=C(NNC(=S)Nc1ccc(OC(F)F)cc1)c1cc2c(s1)CCCC2,-1%,-6%,-7.1%,?,-8%,-11%,6%,4%
O=C(N/N=C/c1cc(Br)ccc1O)C(c1ccncc1)N1CCOCC1 (stereo not given),?,-15%,-6.9%,?,-21%,?,-7%,-5%
CCOc1ccccc1C(=O)NCCCCCC(=O)O,-4%,2%,1.2%,-8%&-8%[46.1 µM],-8%,1%,37%,-3%
Cc1ccc(/C=C/C(=O)Nc2cc(C)on2)cc1,-3%,-3%,-1.7%,?,33%[activator],?,-12%,?
CC(NC(=O)Cn1cc2c(n1)CCCCC2)c1ccccc1 (stereo not given),-1%,0%,2.6%,.,-17%,.,3%,0%
CCCCCOc1ccc(NC(=O)C(=O)NCCCn2ccnc2)cc1,5%,1%,0.7%,?,-22%,11%,-4%,-3%
O=C(O)c1c(-c2ccccc2)c2oc3ccccc3c2[nH]c1=O,2%,12%,-3.7%,3%,15%,0%,3%[3.69 µM],6%
O=c1[nH]c(CSc2ncnc3sccc23)nc2ccccc12,0%,-6%,.,.,-12%,.,8%,.
COc1ccc(-c2cc(C(=O)NC3CCCC3)no2)cc1OC,3%,4%,5.8%,8%,24%,4%,1%,10%
COc1cc2c(C(=O)N3CCN(c4cccc(Cl)c4)CC3)cn(CC(C)C)c(=O)c2cc1OC,-3%,?,-8.7%,?,-9%,?,-16%,?
COc1ccc(C)cc1NC(=O)C1CCN(S(=O)(=O)c2cc(Br)cc3c2N(C(C)=O)CC3)CC1,.,.,-2.6%,16%[46.1 µM],-9%,?,.,-8%
c1cc2c3c(cccc3c1)NC1(CCCC1)N2,.,.,.,-22%,-1%,8%,10%,.
Cc1cc(N2CCCCC2)nc2ccccc12,-3%,5%,.,-29%[46.1 µM],13%,29%,-10%,.
Cn1c(SCC(=O)c2ccc(F)cc2)nnc1-c1ccccc1Br,.,.,-2.1%,?,20%,-14%[46.1 µM],.,-9%
O=S(=O)(c1ccc(F)cc1F)N1CCCN(c2ccc(C(F)(F)F)cn2)CC1,-2%,1%,.,-9%[46.1 µM],-26%,27%[46.1 µM],6%,.
O=C(COC(=O)[C@@H]1CCCN1C(=O)c1cccs1)Nc1ccc(Br)cc1,-7%,.,.,-1%[46.1 µM],-12%,0%[46.1 µM],8%,.
Cc1ccc(S(=O)(=O)N2CCN(c3cc4c(cc3[N+](=O)[O-])n(C)c(=O)n4C)CC2)cc1,-1%,0%,-6.3%,23µM*,.,?,2%,?
CC(C)c1c(C(=O)N/N=C/c2ccccc2OCc2c(F)cccc2Cl)nnn1-c1nonc1N,-2%,9%,.,.,-21%,.,-1%,.
CCc1ccccc1NC(=O)CN1C(=O)C2CCCN2c2ncc(Cl)cc21 (stereo not given),-1%,16%,2.3%,-24%,-24%,-1%,-10%,-3%
Cc1cc(C)n(CCNC(=O)c2ccco2)n1,-5%,9%,.,16%,33%[activator],0%,5%,.
O=C(/C=C/c1cccs1)NCc1ccccc1,0%,0%,.,?,55%[activator],11%,18%,.
Cc1ccc(NC(=O)c2c(N3CCCC3=O)c3cc(C)ccc3n2C)c(C)c1,.,.,-9.8%,.,?,29%[46.1 µM],.,-16%
COc1ccc(N2CCN(C(=O)CSc3nc(C)cs3)CC2)cc1,-2%,.,.,13%[46.1 µM],-13%,14%,0%,.
CCOc1ccccc1OCCOc1ccc(F)cc1,-5%,-7%,-2.2%,14%,-13%,3%,-13%,-3%
Cc1nc2cc(C(=O)N3CCC4(CC3)OCCO4)ccc2n1-c1ccc(Br)cc1,-2%,-17%,1.8%,2%&2%,3%,-29%,1%,30%
Cc1c(-c2ccc(/C=N/NC(=O)C(=O)Nc3ccccc3F)o2)cccc1[N+](=O)[O-],-3%,-3%,.,.,16%,.,-7%,.
O=C(c1ccco1)N(Cc1ccccc1)Cc1ccccn1,0%,1%,.,-10%[46.1 µM],3%,-3%[46.1 µM],6%,.
COc1ccc(Cl)cc1NC(=O)CCC(=O)N1CCOc2ccccc21,.,.,-2.3%,-14%[46.1 µM],23%,4%[46.1 µM],.,24%
C=CCNC(=O)CN(CCc1ccccc1)S(=O)(=O)c1ccccc1,-1%,-3%,.,8%[46.1 µM],7%,-8%[46.1 µM],2%,.

Bioassay records from PubChem BioAssay.

No enrichment for hits, and some 4.7% of all compounds hit somewhere here.
